Screening data: PubChem BioAssay, several laboratories
PrP UTR inh: inhibition of PrP 5' UTR reporter expression; cell-based PrP 5' UTR mRNA reporter, plate reader; inhibition, % (concentration not given with the values); 340,000 compounds, 0.35% hits; AID 488862;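 active = every replicate at 50% or more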;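 note: 0 = median of the neutral control wells; tested in H4 reporter cells; numbers are from one replicate; inactives centre near -14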
Sa RN4220 lethal: S. aureus RN4220 growth inhibition | OD600, 16 h | inhibition, % (no concentration beside the values) | 330,000 compounds, 0.33% hits | AID 1259311;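 active = z-score of -3 or lower and OD600 up to 0.18 on both plates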;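 note: plate controls were untreated cells for no effect and reference antibiotic for full effect; stock transfer was 100 nL into about 80 µL; one replicate is shown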
Mtb hypoxia rep: Mtb hypoxia fluorescent reporter inhibition; 300,000 compounds, 0.1% hits; M. tuberculosis hypoxia-regulated fluorescent reporter, fluorescence; AID 1159583; fluorescence inhibition, % (test concentration not listed);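 active = 35 to 45% if threefold the growth effect, above 45% if 1.5-fold the growth effect; inactive = the rest, general growth blockers included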;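 note: wells of about 50 µL received 100 nL stock; 0% = vehicle wells and 100% = reference inhibitor wells; whole bacteria with a GFP reporter of the hypoxia response; strong numbers were not always called active; many hits fall short of the cut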
Sa ugtP lethal: growth inhibition of S. aureus ugtP deletion strain; S. aureus RN4220 ugtP deletion, OD600 growth, 16 h; some inactives read as strong as hits; growth inhibition, % (concentration not given with the values); 330,000 compounds, 0.54% hits; AID 1259309;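 active = z-score under -3 and OD600 up to 0.15 on both plates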;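 note: plate controls were untreated wells for no effect and antibiotic for full effect; wells of about 80 µL received 100 nL stock; the first replicate is given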
BJeLR viability: kills HRASV12-expressing BJeLR cells. BJeLR (HRASV12) viability, CellTiter-Glo ATP luminescence, 48 h; reference of the scale not given here. inhibition, % (no concentration beside the values). 300,000 compounds, 0.17% hits. AID 1554;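 active = replicate mean above 50%; inconclusive = above 50% but judged a plate artefact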;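 note: 50 nL library stock added to about 25 µL; numbers are from one replicate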
Bead autofluor: compound fluorescence in toxin protease inhibitor counterscreen. fluorescence intensity (no concentration beside the values). compound autofluorescence counterscreen, microsphere flow cytometry; hits give high values. 360,000 compounds, 3.1% hits;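 active = at least 3 SD above the mean of all compounds, about 16000 in these data; inconclusive = too few beads counted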;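 note: 100 nL of 1 mM stock went into each well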
Mtb hypoxia rep growth: further read-out of Mtb hypoxia rep, marked with its call; growth inhibition, %; measured here: M. tuberculosis growth (absorbance);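 0% = vehicle and 100% = reference antibiotic; read after six days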
The depositor's hits bear a star; ? = inconclusive; / = not tested or not shown.

Structure	PrP UTR inh	Sa RN4220 lethal	Mtb hypoxia rep	Mtb hypoxia rep growth	Sa ugtP lethal	BJeLR viability	Bead autofluor
O=C(CSc1cccc[n+]1[O-])Nc1ccc2c(c1)OCO2	-14	0.4	-2	6	-72	4	6234
O=C(Nc1ncccn1)c1cccs1	-11	2.1	/	/	0	-20	3828
CCOC(=O)[C@@H]1[C@H]2COc3ccc(Br)cc3[C@@H]2N2C(=O)N(c3ccc(OC)cc3)C(=O)[C@]12C	16	-1.1	6	1	6	13	4029
CC1(C)CC(CC(=O)Nc2ccccn2)C(=O)O1 (stereo not drawn)	-5	4.0	1	5	-1	3	23618*
CSc1nc2c(c(=O)[nH]c(=O)n2C)n1Cc1ccc(Cl)cc1	11	0.5	3	4	7	-1	3329
O=C(CSc1nc(-c2ccco2)cc(C(F)(F)F)n1)Nc1ccccc1C(F)(F)F	-13	4.6	8	7	2	0	11453
O=C(CSc1ccc2nnc(-c3cccnc3)n2n1)c1ccccc1	-10	3.8	-3	-5	6	2	3626
N#Cc1ccc(Cl)cc1NC(=O)CNc1cccc(S(=O)(=O)N2CCCC2)c1	0	0.8	7	-2	3	/	5833
O=C(OCC(=O)N1CCN(c2ccccc2)CC1)c1cccs1	-33	3.9	-4	-8	3	16	6307
CCCCOc1ccc(C(=O)Nc2ccc(S(=O)(=O)Nc3onc(C)c3C)cc2)cc1	-17	/	/	/	/	-11	5074
CCOC(=O)c1ccc(NC(=O)c2cccc(S(=O)(=O)N3CCOCC3)c2)cc1	-10	-17	8	13	-10	28	3402
Cc1ccc(S(=O)(=O)NC2CC2)s1	-9	3.1	15	4	2	-5	6061
Cc1ccc(-c2noc(-c3ccccc3C(=O)N3CCN(C)CC3)n2)cc1	-16	-1.1	/	/	-2	-2	2473
CCc1ccc2c(CN3CCOCC3)cc(=O)oc2c1	-9	3.4	-3	7	0	-8	4561
O=c1c2ccccc2ncn1CCCOc1ccccc1[N+](=O)[O-]	-60	3.4	-4	2	0	15	20774*
CC1(NC(=S)Nc2ccc3ccccc3c2)CCS(=O)(=O)C1 (stereo not drawn)	0	4.3	3	14	7	5	/
C=CCOc1ccc(/C=N\NC(N)=S)cc1	-28	/	/	/	/	-3	2539
CCNc1nc(OCCNS(=O)(=O)c2cc(C)ccc2C)nc(N(C)C)n1	-22	3.5	6	12	5	4	3465
CCOC(=O)N1CCN(C(=S)NC(C)(C)C)CC1	-6	4.1	-1	5	-2	-6	22858*
O=C(CN1C(=O)COc2ccccc21)Nc1ccccc1F	-10	0.0	-6	-4	-4	-11	3724
Cc1cc(NC(=O)CSc2nc3ccccc3c(=O)n2Cc2ccccc2)no1	-19	0.8	4	1	3	-1	3978
COc1ccc(NC(=O)Cc2nnc(SCC(=O)NC3CCCCC3)n2C)cc1	-25	-1.0	0	-10	8	13	3553
COc1ccc(CC(=O)NC(=S)Nc2cccc(CO)c2)cc1	/	3.7	10	2	3	-1	/
O=C(CCc1nc(-c2ccccc2F)no1)NCCN1CCc2ccccc2C1	-28	6.2	/	/	-1	0	5653
COC(=O)c1nn(-c2ccc(OC)cc2)c(=O)c2c(N)sc(C)c12	-29	8.0	11	4	8	0	2453
CC(C)(C)C1CCc2c(C(=O)NNC(=O)CCCC(=O)O)csc2C1 (stereo not drawn)	-15	2.1	17	4	9	-9	2536
COc1ccc(/C=N/NC(=O)c2cc(-c3ccccc3)nc3ccccc23)c(C(=O)O)c1OC	-24	/	/	/	/	6	3581
O=C1c2ccccc2C(=O)N1CC(O)CNc1ccc(Br)cc1 (stereo not drawn)	-16	7.3	1	2	1	-7	10156
CCC(C)(C)NC(=O)C1CCCN(S(=O)(=O)c2ccc3c(c2)CC(C)N3C(=O)C2CC2)C1 (stereo not drawn)	-13	3.4	3	-4	8	2	5416
COc1cccc(C2=CC(=O)C[C@H](c3ccc4c(c3)OCO4)C2)c1	26	-11	10	9	-6	/	4017
CC(=O)c1ccc(NN=C(C(N)=O)C2=NC(C)(C)Cc3ccccc32)cc1	/	1.5	2	4	1	/	/
O=C(Nc1sc2c(c1C(=O)NCC(O)CO)CCCC2)c1ccccc1 (stereo not drawn)	-25	3.6	2	2	2	-3	4543
CCOc1cc2c(cc1OCC)-n1cccc1C(c1cccc(F)c1F)NC2 (stereo not drawn)	-35	3.4	12	5	-15	-12	3946
CN(Cc1ccc(OC(F)F)cc1)C(=O)/C=C/c1ccc(S(=O)(=O)N2CCOCC2)cc1	-16	2.3	6	3	6	/	6004
COc1ccc(NC(=O)ON=Cc2ccccc2Cl)cc1	/	7.2	7	15	3	/	/
Cc1ccc(S(=O)(=O)N2CCOCC2)cc1C(=O)N1c2ccccc2Sc2ccccc21	1	4.0	/	/	0	-1	4649

Reformatted with two lines to a compound: 2 of the compounds above
Sequence of screens – PrP UTR inh | Sa RN4220 lethal | Mtb hypoxia rep | Mtb hypoxia rep growth | Sa ugtP lethal | BJeLR viability | Bead autofluor
> COc1cccc(C2=CC(=O)C[C@H](c3ccc4c(c3)OCO4)C2)c1
    26 | -11 | 10 | 9 | -6 | / | 4017
> CC(=O)c1ccc(NN=C(C(N)=O)C2=NC(C)(C)Cc3ccccc32)cc1
    / | 1.5 | 2 | 4 | 1 | / | /

Next section:
Structure	PrP UTR inh	Sa RN4220 lethal	Mtb hypoxia rep	Mtb hypoxia rep growth	Sa ugtP lethal	BJeLR viability	Bead autofluor
CC(/C=C/c1ccccc1F)=N\NC(=O)c1ccccc1	-76	/	/	/	/	2	8696
CCOC(=O)c1sc(NS(=O)(=O)c2cc(C)ccc2C)nc1C	-15	11	8	6	-8	4	3959
CCCCc1cc(=O)oc2cc(OCC(=O)NC(Cc3c[nH]c4ccc(O)cc34)C(=O)O)ccc12 (stereo not drawn)	-11	3.6	/	/	-1	-7	5413
COC(=O)C1=CO[C@@H](C)[C@@H]2CN(CCc3c[nH]c4ccccc34)CC[C@H]12	-20	0.1	/	/	-7	-1	5452
CC(C)CC(c1nnnn1C1CCCC1)N1CCN(c2ccccc2F)CC1 (stereo not drawn)	-33	3.0	/	/	5	5	4972
CCN(CC)CCCNC(=O)c1sc2nc(-c3ccc(F)cc3)cn2c1C	-15	-0.6	5	17	-17	3	9361
Cc1ccnc(SCCn2c(Br)nc3c2c(=O)[nH]c(=O)n3C)n1	-10	5.1	9	10	-4	13	2108
CC(=NCc1ccc2c(c1)OCO2)C1=C(O)c2ccccc2C1=O	1	0.8	/	/	6	-6	8308
O=C(Nc1ccc2nn(-c3ccccc3)nc2c1)c1cccnc1	-48	-2.2	/	/	-4	/	5109
CCOC(=O)CNC(=O)CSc1nnc(CCc2nc3ccccc3[nH]2)n1C	-6	3.3	3	1	9	-5	/
CCc1ccccc1NC(=S)NC1CC2CCC(C1)N2Cc1ccco1 (stereo not drawn)	-9	4.5	0	-4	16	5	8341
COc1ccc(OCC(=O)OCC(=O)NC2CCCCC2C)cc1 (stereo not drawn)	/	2.5	-3	8	4	/	6361
Cc1cc(N2C(=O)C(O)=C(C(=O)c3cccs3)C2c2cccc(Br)c2)no1 (stereo not drawn)	-19	67	-2	-3	50	13	6105
COc1ccc(N2CC(O)(c3ccc(OC(F)F)cc3)[N+]3=C2CCCC3)cc1 (stereo not drawn)	-28	-2.8	1	0	0	3	3004
Cc1csc(/C(=N/OC(=O)c2ccco2)C(N)=O)n1	-8	/	/	/	/	-1	4820
O=C(NCCCN1CCOCC1)c1cc(-c2cccc(Br)c2)nc2ccccc12	-22	-1.1	7	-2	2	3	4162
c1ccc(Cn2c(-c3ccccc3)nc3nc4ccccc4nc32)cc1	-5	4.6	14	21	8	-2	7521
O=C(N/N=C/c1ccc(OC2CSC2)cc1)c1ccccc1	-115	/	/	/	/	-13	10954
COc1ccc(-c2ccnc(SCC(=O)c3ccc(Cl)cc3)n2)cc1	-20	8.6	6	-8	-3	0	6905
Clc1nc(Oc2ccccc2)nc(-c2cn(-c3ccccc3)c3ccccc23)n1	0	6.8	12	9	-2	7	4437
Cc1ccc(S(=O)(=O)N2C(c3ccc(C(C)C)cc3)CC=C(C(=O)O)C2c2ccccc2F)cc1 (stereo not drawn)	/	14	7	5	5	/	/
O=C(CCC1CCCC1)N[C@@H](Cc1ccc(O)cc1)C(=O)O	-14	/	/	/	/	-3	3970
CCN1CCN(C(c2cccs2)C(C)NS(=O)(=O)c2ccccc2)CC1 (stereo not drawn)	-9	7.9	12	8	17	7	5346
Cc1cccc(-c2nc(CNC(=O)c3ccco3)cs2)c1	-8	13	7	-8	12	-5	4731
CCC(=O)c1ccc(OCC(=O)N2CCc3cc(OC)c(OC)cc3C2)cc1	-4	0.3	/	/	5	/	3597
COc1ccc(C(=O)N[C@H](C(=O)NCc2cccs2)C(C)C)cc1	13	2.1	12	-12	5	7	4888
Cc1nn(C)cc1CNC(=O)COc1ccc(Cl)cc1Cl	-8	-1.8	3	0	-8	-4	4026
O=C(NN=Cc1ccc([N+](=O)[O-])o1)C1CC1	/	20	3	5	22	/	/
Cc1csc(NC(=O)C2CCC(C)(C(=O)O)C2(C)C)n1 (stereo not drawn)	-23	4.0	15	7	-3	-8	20359*
COCC(C)n1c(SCC(=O)Nc2oc(C)c3c(C)n[nH]c(=O)c23)nc2ccccc2c1=O (stereo not drawn)	7	3.7	-6	-4	12	-3	4299
COc1ccc(NC(=O)c2cc(S(=O)(=O)N(C)C)ccc2N2CCCC2)cc1Cl	-19	3.2	7	1	3	-1	2526
O=C1Nc2ccccc2N(O)N1c1ccc(Cl)c(Cl)c1	-10	6.9	21	17	3	9	2665
O=C(O)COCC(=O)NCc1csc2ccc(Cl)cc12	-12	-2.4	-2	-8	-7	2	5987
Cn1cccc1CNCCc1ccccc1F	-20	-3.1	-4	1	-6	1	15969
Cc1noc(C)c1S(=O)(=O)N1CCCC1C(=O)NC(C)(C)C (stereo not drawn)	-22	0.7	4	6	2	5	6300
Cc1cc(C(=O)Nn2c(C3CCCCC3)nc3ccccc3c2=O)ccc1[N+](=O)[O-]	-29	4.2	8	4	5	-7	2502
CCOc1ncccc1C(=O)Nc1ccc2c(C)cc(=O)oc2c1	-20	1.6	4	3	3	-9	4149
CC(C)C(=O)ON=C1CCS(=O)(=O)c2sccc21	/	0.1	-2	2	0	/	/
O=C1Cc2ccccc2C(=O)N1c1cccc(Cl)c1	-34	4.4	-4	6	3	0	4587
Cc1ccc(Cn2ccc(NC(=O)c3nc4ncccn4n3)n2)cc1	-19	-5.3	18	10	1	8	2846
COc1ccc(C(CNC(=O)c2ccc(C)c(S(=O)(=O)N3CCCCC3)c2)N2CCCC2)cc1 (stereo not drawn)	-18	2.4	13	10	8	/	9963
Cc1cc(C(=O)COC(=O)c2ccc(O)cc2)c(C)n1CC1CCCO1 (stereo not drawn)	-37	-0.4	-7	10	-8	3	4635
O=C(O)COc1cccc2ccccc12	-26	2.9	7	10	-7	6	11450
O=C(COc1ccccc1[N+](=O)[O-])Nc1ccc(NC(=O)c2cc3ccccc3o2)cc1	-16	6.2	16	9	24	-21	4682
Cc1ccc(C=NNc2ccccn2)s1	/	4.6	18	6	2	/	/
Cn1c(=O)c(=O)n(C)c2cc(S(=O)(=O)CCC(=O)Nc3ccc(F)cc3)ccc21	-11	-5.8	5	8	-6	-14	5785
Cc1ccc(/C=N/NC(=O)CN2C(=O)CSc3ccccc32)o1	1	/	/	/	/	11	6132
CN(CC(=O)Nc1ccccc1Cl)C(=O)C1CCN(S(=O)(=O)c2ccc3c(c2)OCCO3)CC1	-5	2.8	7	6	1	9	?
COc1cc(C(=O)Nc2cccc(S(=O)(=O)NCc3ccco3)c2)cc(OC)c1OC	/	8.5	14	2	-5	/	?
O=S(=O)(NCCN1CCN(S(=O)(=O)c2ccccc2F)CC1)c1ccccc1F	-16	2.6	4	4	5	/	4104

An unsorted share of the library; 4% or so of the library scored in one or more.
